# D2 agonist – human D2 receptor agonism in beta-arrestin assay; activation, % (no concentration beside the values); DiscoveRx PathHunter D2 beta-arrestin, luminescence, 90 min; 100% = 57 uM dopamine signal; P14416; actives 0.084% (n = 360,000); in the data active = activation above about 40%; inconclusive = about 15% to 40%; inactive = below about 15%; further: compound concentration not given in the record; the text of the record calls up to 30% inactive
# Target sequence (P14416 whole entry, looked up): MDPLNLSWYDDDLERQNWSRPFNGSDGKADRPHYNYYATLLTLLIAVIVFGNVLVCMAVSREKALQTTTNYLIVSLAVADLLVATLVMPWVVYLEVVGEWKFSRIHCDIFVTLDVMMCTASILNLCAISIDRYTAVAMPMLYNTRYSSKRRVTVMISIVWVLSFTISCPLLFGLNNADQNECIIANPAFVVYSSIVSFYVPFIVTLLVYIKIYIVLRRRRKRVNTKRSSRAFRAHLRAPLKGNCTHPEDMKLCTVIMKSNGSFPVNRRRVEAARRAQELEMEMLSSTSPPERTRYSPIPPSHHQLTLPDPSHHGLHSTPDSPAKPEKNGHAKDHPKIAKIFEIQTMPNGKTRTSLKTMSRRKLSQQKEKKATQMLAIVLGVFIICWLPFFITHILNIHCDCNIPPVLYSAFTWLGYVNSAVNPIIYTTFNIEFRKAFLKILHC
#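 DiscoveRx PathHunter D2 beta-arrestin cells (2,100/well) attached overnight, then compound-stimulated 90 min at 37 C in HBSS/10 mM HEPES/0.1% Tween-20 buffer; beta-galactosidase complementation read by luminescence after 1 h at ambient temperature. Dopamine 57 uM final (EC100) as control.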
# gsp agonist – agonists of gsp mutant (McCune-Albright syndrome); gsp mutant cells, cAMP HTRF, 30 min; control for the full effect not named in the record; Potency, µM (series often up to 76.9 µM), for the others: top-dose activation (cAMP increase), actives largely listed as activators; actives 0.13% (n = 340,000); AID 624287; active = well fitted activation curve with a large enough effect; inconclusive = small, poorly fitted or top-dose-only effect, or another doubt; inactive = no such curve, though single readings can be large or run the other way; cell line not stated here;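 further: phosphodiesterase inhibitor Ro 20-1724 added with compounds to block cAMP breakdown; potency means the concentration at half of the fitted maximal effect; nearly all actives have a fitted effect of over 60% in size; about a fifth of the inactives were tested at one dose only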
#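 Cells stably selected in G418 were plated at 2000/well, grown 16-24 hr, then given compounds in DMSO with the PDE inhibitor […] (300 uM solution added) for 30 min at 37C; cAMP was read by HTRF.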
# CtBP-E1A inh – inhibitors of CtBP/E1A interaction; activity change, % (test concentration not listed); AlphaScreen GST-E1A/His-CtBP binding, 1536-well; hits give low values; control for the full effect not named in the record; AID 651724; actives 0.49% (n = 340,000); in the data active means activity change below about -65%; inconclusive means about -30% to -65%; inactive means above about -30%; further: on the % scale 0 is the no-effect control and ±100 the full control effect; compound concentration not given in the record
#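 Protein mix (5X: 125 nM each GST-E1A, His-CtBP) was incubated with pinned compound 2 h at 37 deg C in dark, in 50 mM Tris pH 8.0 buffer with 300 mM NaCl. Glutathione donor and nickel acceptor beads followed; AlphaScreen signal read after 1 h.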
# D2 potentiator – human D2 receptor positive allosteric modulation; AID 624464; potentiation, % (no concentration beside the values); DiscoveRx D2 beta-arrestin cells, luminescence, 90 min; 100% = 57 uM dopamine signal; P14416; actives 0.23% (n = 360,000); active = potentiation of 50% or more; inconclusive = 30% to 50%; inactive = 30% or less;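 further: compound concentration not given in the record; tested on top of an EC20 dose of dopamine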
#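 PathHunter D2 cells, attached overnight at 37 deg C, received compound in DMSO plus dopamine at EC20 (50 nM final) for 90 min at 37 deg C. Beta-arrestin recruitment was read as luminescence after 1 h with detection reagent at ambient temperature.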
# Six1-Eya2 blk – blocks human Six1 binding to Eya2; Q15475+O00167; AlphaScreen GST-Six1/His-Eya2 binding, biochemical; hits give low values; control for the full effect not named in the record; activity change, % (no concentration beside the values); actives 0.56% (n = 360,000); AID 651725; in the data active = activity change below about -65%; inconclusive = about -30% to -65%; inactive = above about -30%; further: on the % scale 0 is the no-effect control and ±100 the full control effect; compound concentration not given in the record
#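 Homogeneous AlphaScreen proximity assay pairing GST-Six1 with His-tagged Eya2 (added as 5X mix: 250 nM and 500 nM) in 50 mM Tris pH 8.0, 300 mM NaCl, 1 mM TCEP. Glutathione donor and nickel acceptor beads; 1 h, 37 °C, dark.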
# gsp antag – antagonists of gsp mutant (McCune-Albright syndrome); gsp-mutant cells, cAMP HTRF, 30 min; control for the full effect not named in the record; Potency, µM (doses to about 76.9 µM), for the others: at the top dose activity change, negative = inhibition, actives largely listed as inhibitors; actives 0.4% (n = 340,000); AID 624288; active = falling curve of any shape with a large fitted effect; inconclusive = falling curve, mostly with a smaller effect; inactive = flat or rising curve; cell line not stated here;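 further: intracellular cAMP measured with PDE inhibitor Ro 20-1724 present during compound exposure; potency means the concentration at half of the fitted maximal effect; on the % scale 0 is the no-effect control and ±100 the full control effect; nearly all actives have a fitted effect of over 65% in size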
#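 HTRF cAMP read-out (cAMP-d2 plus anti-cAMP antibody-K in lysis buffer, 30 min RT). Before lysis, cells are exposed to compounds with […] for 30 min at 37C in DPBS containing Ca/Mg, BSA and Tween 20.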
# An asterisk follows results filed as active; ? = inconclusive; nt = not tested or not shown; [ ] = remark or other dose.
SMILES,D2 agonist,gsp agonist,CtBP-E1A inh,D2 potentiator,Six1-Eya2 blk,gsp antag
Cc1nc(N=C(N)N)nc2c(C)cccc12,-5.8,-5%[15.4 µM],10,-17,-73*,22%
Cc1cc2nnc(SCC(=O)N3C(C)CCCC3C)n2c(N)n1 (centres undefined),-2.4,-45%,5,-1,3,11%
CC(C)(C)Cn1c(=O)[nH]c(=O)c2cc([N+](=O)[O-])cnc21,-1.5,1%,-7,-6,5,-5%
COCCn1c(SC2CCCCC2=O)nnc1-c1ccncc1 (centres undefined),-3.0,0%[15.4 µM],5,-19,-4,10%
CC(C)[C@H]1C(=O)Nc2ccccc2N1C(=O)N[C@@H](Cc1ccccc1)C(=O)N[C@@H](C(=O)O)c1ccccc1,-3.0,nt,3,-5,7,3%
CCn1c(=O)n(CC(=O)NCC2CCCO2)c(=O)c2c3c(sc21)COC(C)(C)C3 (centres undefined),3.6,?,6,0,4,3%
Cc1cccc(C)c1C(O)c1ncc(-c2cccc3ccccc23)[nH]1 (centres undefined),-4.4,nt,-14,-6,-12,nt
O=C(Nc1cccn(Cc2c(Cl)cccc2Cl)c1=O)c1c(Cl)cccc1Cl,7.0,-14%,-12,-8,-7,-15%
O=C(Nc1ccc2c(c1)OCCO2)c1cnn(-c2ccccc2)n1,9.4,-64%[inhibitor],-9,-2,-2,-10%
CC(C)c1ccc(C(=O)N(c2ccccn2)C(C)c2ccco2)cc1 (centres undefined),-2.3,-34%,-4,-12,-3,-18%
O=C(Nc1ccc(-c2nc3ccccc3o2)cc1)c1cccnc1,5.4,4%,-1,10,-3,-15%
O=C1CN(C(=O)C2CCC(=O)N(CCc3ccc(Cl)cc3)C2)CCN1 (centres undefined),-1.5,-54%[inhibitor],-4,2,6,20%
COc1ccc(C(=O)C2CCCN(C(=O)CCNC(C)=O)C2)cc1OC (centres undefined),-4.7,?,-1,-5,5,-1%
Cc1cc(O)cc(O)c1/C=N/NC(=O)c1ccc2c(c1)OCCO2,0.2,?,-21,-31,?,nt
O=C(CSc1ccc2nnc(-c3cccnc3)n2n1)Nc1ccccc1F,0.6,?,?,-2,?,nt
CCOC(=O)C1(C)CCN1C(=O)c1c(F)cccc1F (centres undefined),-4.1,nt,2,-1,4,nt
COCC(C)NC(=O)c1ccc2c(c1)S(=O)(=O)c1ccccc1C2=O (centres undefined),7.7,-31%,6,6,2,-7%
CC(=O)Nc1ccc(SC[C@H](CC(C)C)N2CCN(CC(C)C)CCC2=O)cc1,-1.0,nt,-21,-7,-2,3%
COc1ccc(CNc2nc3ccccc3n2Cc2ccc(Cl)cc2)cc1OC,0.3,-10%[15.4 µM],7,-15,-15,-1%
COC(=O)c1ccc(C(=O)NC2CCCc3c2cnn3-c2ccccc2F)nc1 (centres undefined),5.8,3%,1,-2,0,5%
CCN(CC)C(=O)c1ccc2sc([C@@H]3O[C@H](CO)[C@H](O)[C@H](O)[C@H]3O)nc2c1,-7.2,nt,5,-7,5,nt
O=C(C1=C[C@@H](c2ccccc2)C[C@@H](OCc2ccc(CO)cc2)O1)N1CCOCC1,2.1,nt,6,?,0,7%
O=S(=O)(CCc1nc2ccccc2o1)c1ccc(Cl)c(Cl)c1,-1.0,?,1,-3,3,3%
CS(=O)(=O)N1CCN(c2ccccc2NC(=O)c2cc(Br)ccc2Cl)CC1,-2.6,-9%,-1,0,-5,-28%
O=C(OCCN1C(=O)c2ccccc2C1=O)C1CCN(S(=O)(=O)c2cccs2)CC1,2.1,29%,-1,3,2,-4%
# (cont.)
SMILES,D2 agonist,gsp agonist,CtBP-E1A inh,D2 potentiator,Six1-Eya2 blk,gsp antag
CN(C)S(=O)(=O)c1ccc(N2CCCC2)c(C(=O)NNC(=O)COc2ccccc2F)c1,-1.1,2%,-4,2,2,10%
COc1ccc(OCCSc2ncn[nH]2)cc1,-0.5,-23%,1,13,1,7%
Cc1ccc(S(=O)(=O)N2CCN(C(=O)CSCc3ccc(C(C)C)cc3)CC2)cc1,0.5,-37%,nt,-4,2,-23%
CCC1(CC)NC(=O)N(CC(=O)Nc2ccc(-n3cnnn3)cc2)C1=O,0.0,2%,nt,-15,4,8%
CCCCC(=O)Nc1cccn2ncnc12,-4.2,7%[15.4 µM],4,-7,10,4%
O=[N+]([O-])c1ccc(S(=O)(=O)NCCc2ccncc2)cc1,4.1,0%,1,12,0,-6%
CSc1ccccc1C(=O)Nc1nccs1,3.9,24%,-5,-3,6,10%
O=C(c1ccc(F)cc1)N1CCN(c2ccc(N3CCOCC3)nn2)CC1,-8.8,8%,0,-3,1,-5%
CCOC(=O)CC(C)(C)/C(C)=N/Nc1ccc([N+](=O)[O-])cc1[N+](=O)[O-],2.2,2%[15.4 µM],?,12,?,-31%
Cc1ccc(S(=O)(=O)N2c3ccccc3NC(=O)CC2C)cc1 (centres undefined),0.0,7%,-11,4,6,5%
COc1nonc1NC(=O)CSc1nc2ccccc2[nH]1,-1.8,-4%,-3,6,0,-14%
Cc1noc(C)c1NC(=O)N(C)C[C@@H]1OCc2cnnn2CCCC(=O)N([C@@H](C)CO)C[C@H]1C,-1.5,?,1,2,2,nt
CCc1ccc(C(=O)NNC(=O)CC2OC(=O)c3ccccc32)cc1 (centres undefined),-1.1,0%[15.4 µM],3,4,-2,4%
C[C@H]1CN([C@@H](C)CO)C(=O)c2cc(Br)cnc2O[C@H]1CN(C)S(=O)(=O)c1ccccc1F,-2.3,37%,-11,nt,-3,nt
COc1ccc(Cl)cc1C(=O)N1CCN(c2ccccn2)CC1,-1.8,-1%,0,-5,0,-1%
O=C(CO/N=C/c1ccc(OC(F)F)cc1)NCc1ccc(F)cc1,3.7,2%[15.4 µM],-12,-10,-4,-4%
O=C(CSc1n[nH]c(=O)n1Cc1ccco1)Nc1ccccc1,-4.6,-55%[inhibitor],7,-3,10,11%
CN(Cc1ccccc1)Cc1nc2c(c(=O)n(C)c(=O)n2C)n1CCCc1ccccc1,-1.9,-61%[inhibitor],5,-11,-3,2%
Cc1cc(C(=O)CSc2nc3ccccc3[nH]2)c(C)n1CC1CCCO1 (centres undefined),2.0,7%,2,-14,-10,32µM*
COc1ccc2oc(C(=O)NC3(C)CCS(=O)(=O)C3)c(C)c2c1 (centres undefined),1.8,2%[15.4 µM],1,-25,6,3%
CNC(=S)N1N=C2c3ccccc3CCC2C1c1ccccc1Cl (centres undefined),-4.8,6%[15.4 µM],1,-6,-1,-24%
O=C(Nc1nc2nccc(-c3ccccc3)n2n1)c1ccccc1,-1.7,?,-2,-3,-1,-1%
O=C(CCCN1C(=O)c2ccccc2C1=O)Nc1ccc(S(=O)(=O)N2CCOCC2)cc1,-1.3,26%,6,-3,-1,6%
COc1ccc(CCNC(=O)COC(=O)CCC(=O)c2ccc(F)cc2)cc1,-2.5,-12%[15.4 µM],-12,-1,-3,5%
O=C(Nc1ccc(C2=CN(Cc3ccccc3)CCC2=O)cc1)OCc1ccccc1,0.1,nt,3,5,4,-4%
# (cont.)
SMILES,D2 agonist,gsp agonist,CtBP-E1A inh,D2 potentiator,Six1-Eya2 blk,gsp antag
Clc1ccc(-c2nnc(-c3ccccc3)nc2-c2c[nH]c3ccccc23)cc1,-3.0,1%[15.4 µM],-4,-1,-1,4%
COC(=O)[C@H](C)NC(=O)Nc1cc(OC)ccc1OC,0.8,19%,5,-3,7,4%
O=C(CC1C[C@H](C(=O)N2CCCCC2)[C@@]2(CCc3ccccc3)c3[nH]c4ccccc4c3CCN2C1=O)NCCCn1ccnc1 (some centres undefined),-1.2,nt,-7,nt,-19,-9%
O=C1CC2(CCCC2)C(=O)N1CN1CCN(S(=O)(=O)c2ccc(Cl)c(Cl)c2)CC1,-0.5,-22%,18,6,2,16%
Nc1nc(N)c(Br)c(Nc2ccc(Cl)c(Cl)c2)n1,2.3,-9%,-2,-2,-4,-6%
COc1ccccc1NC(=O)NN1CCCCC1,-2.5,-10%,4,-4,6,11%
CC1(C)Cc2ccccc2C(N)=C1C#N,-1.2,-4%,-8,-5,-5,1%
C=CCn1c(NCc2cc(C)ccc2O)nc2ccccc21,-2.2,-47%[inhibitor],-1,-10,-6,-15%
Cc1c(C(=O)c2ccccc2)oc2ccc3ccccc3c12,-3.3,9%[15.4 µM],16,-10,36,-4%
CCN(CC)Cc1c(O)ccc2c(-c3ccccc3)cc(=O)oc12,-2.2,27%,7,-39,3,-4%
Nc1c(-c2ccccc2)c(CSc2nc3ccccc3[nH]2)nn1-c1cccc(C(=O)O)c1,3.3,-19%,1,3,-1,-13%
O=c1[nH]c2ccc(Br)cc2c(=O)o1,-2.4,-33%[inhibitor],5,1,1,nt
Cc1ccc(-c2nc(CS(=O)(=O)CC(=O)NC3CCCCCC3)c(C)o2)cc1,-0.4,7%,-14,3,2,4%
CCOC(=O)COc1ccc2c(=O)c(-c3ccccc3)coc2c1,0.1,-56%[inhibitor],16,-2,0,?
N/C(=N\OC(=O)CCC1CCCC1)c1ccc(Cl)cc1,-2.4,?,6,-16,-8,-2%
Cc1nn(CC(=O)NCC2CCCO2)c(=O)c2ccccc12 (centres undefined),-2.1,?,0,-15,5,31%[activator]
c1ccc2c(OCCCN3CCCCCC3)cccc2c1,-2.4,?,nt,-79,14,10%
Cc1nnc(SC(C)C(=O)Nc2ccc(N3CCOCC3)cc2)n1Cc1ccccc1 (centres undefined),-0.6,7%,-24,-4,-1,0%
Cc1ccc(C(=O)Nn2cnnc2)c(Cl)c1,-4.9,12%,nt,-8,6,5%
N#Cc1c(-c2ccccc2)cc(-c2ccccc2)nc1SCC(=O)O,-3.6,?,6,-5,0,?
CC(=O)CSc1ncnc2nc[nH]c12,-1.1,-27%,0,-5,3,2%
CCOC(=O)Cc1cc(=O)n2[nH]c(C)c(-c3ccc(OC)cc3)c2n1,-1.0,12%,-5,-15,0,-7%
CC1(C2CC2)NC(=O)N(CC(=O)NCc2ccc(Cl)cc2Cl)C1=O (centres undefined),-8.7,-5%,0,-3,6,1%
CC(NC(=O)CCCc1c[nH]c2ccccc12)c1ccc(F)cc1 (centres undefined),-6.3,17%[15.4 µM],-7,-9,1,-5%

# Another view of six compounds above.
# Order of results: D2 agonist | gsp agonist | CtBP-E1A inh | D2 potentiator | Six1-Eya2 blk | gsp antag
N#Cc1c(-c2ccccc2)cc(-c2ccccc2)nc1SCC(=O)O
  -3.6 | ? | 6 | -5 | 0 | ?
O=c1[nH]c2ccc(Br)cc2c(=O)o1
  -2.4 | -33%[inhibitor] | 5 | 1 | 1 | nt
O=C(CSc1n[nH]c(=O)n1Cc1ccco1)Nc1ccccc1
  -4.6 | -55%[inhibitor] | 7 | -3 | 10 | 11%
O=C(Nc1ccc(-c2nc3ccccc3o2)cc1)c1cccnc1
  5.4 | 4% | -1 | 10 | -3 | -15%
CC(NC(=O)CCCc1c[nH]c2ccccc12)c1ccc(F)cc1 (centres undefined)
  -6.3 | 17%[15.4 µM] | -7 | -9 | 1 | -5%
Nc1nc(N)c(Br)c(Nc2ccc(Cl)c(Cl)c2)n1
  2.3 | -9% | -2 | -2 | -4 | -6%
